# Screens deposited in PubChem BioAssay by Center for Chemical Genomics, University of Michigan.
# TAR Tat displ: HIV-1 TAR-Tat binding disruption; HIV-1 TAR RNA, Tat peptide displacement FRET; active compounds read high; z-score (no concentration beside the values); hit rate 0.6% among 100,000; AID 1259389;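 also: score is relative to mean and SD of negative controls; some compounds called inactive have numbers as strong as hits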
# CDC25B CDK2 inh: human CDC25B-CDK2/CyclinA binding inhibition; P30305+P24941; hit rate 0.72% among 94,000; z-score (concentration not given with the values); HTRF CDC25B-CDK2/CyclinA binding, anti-His/anti-Flag; active compounds read high;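 also: score is relative to mean and SD of negative controls; strong numbers were not always called active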
# * hit, by the source's call; / = no result given.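 The calls were made as follows: active = z-score from 3 up in half or more of its runs; inactive = the rest.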
SMILES,TAR Tat displ,CDC25B CDK2 inh
Cc1ccc(NS(=O)(=O)c2ccc3c(c2)NC(=O)CC(C)S3)cc1N(C)C (configuration not stated),1.3,/
S=c1[nH]nc(-c2ccccc2)n1/N=C/c1cccs1,/,-1.3
Cc1ccc2nc(-c3ccsc3)c(NC3CCCC3)n2c1,/,-3.1
c1coc(CN2CN(CCN3CCOCC3)Cn3c2nc2ccccc23)c1,0.1,-1.7
O=S1(=O)N=C(Nc2ccc(S(=O)(=O)N3CCCCC3)cc2)c2ccccc21,0.78,-0.07
Cc1cccn2c(=O)c3cc(C(=O)N4c5ccccc5CC4C)n(C)c3nc12 (configuration not stated),2.2,/
CCN1CCN(CCNC(=O)C2Cc3cc(S(=O)(=O)N4CCOCC4)ccc3N2C(C)=O)CC1 (configuration not stated),-0.61,/
Cc1onc(NC(=O)c2ccc([N+](=O)[O-])o2)c1Br,/,-5.5
Fc1cccc(-c2nnc(Cc3ccc(F)cc3Cl)o2)c1,1.1,-0.39
Cc1ccc(S/C=C(\C#N)S(=O)(=O)c2ccc(Cl)cc2)cc1,/,-1.3
CCCCN=C1NC(=O)NC(=O)C1(CC)CC,/,0.17
Cc1cc(C)c(NC(=O)Cn2nnc(S(=O)(=O)c3ccc(C)c(C)c3)c2N)c(C)c1,/,-1.5
O=c1ccc(-c2ccc(S(=O)(=O)N3CCc4ccccc43)s2)n[nH]1,-0.78,/
CCOc1ccc(-n2nnnc2CNS(=O)(=O)c2ccc(OC)cc2)cc1,0.12,/
CS(=O)(=O)Nc1ccc2nc(SCC(=O)Nc3ccc(F)cc3)sc2c1,1,1.2
Cc1nc2nc(NCc3cccs3)[nH]n2c(=O)c1CCC(=O)Nc1cccnc1,-1.1,-1.9
CC1CC(NC(=O)CC#N)CC(C)(C)C1 (configuration not stated),/,-0.72
COc1ccc(S(=O)(=O)c2ccc(OC)cc2)cc1,1.4,-0.31
Cc1c2c(nc3c(C(=O)NC4CCCCCC4)cnn13)CCCC2,/,-3.4
CC1=C(C(=O)OCC2CCCO2)C(c2ccccc2OCc2ccccc2)C2=C(CCCC2=O)N1 (configuration not stated),2.2,-1.1
O=C(NCCCN1CCCC1)c1noc2c1CCc1sccc1-2,0.67,/
O=c1c(NCCCc2ccccc2)c(-c2ccccc2)c1=O,2.8,/
N[C@@H](CCC(=O)N[C@@H](CS)C(=O)NCC(=O)O)C(=O)O,1.7,/
NC(=O)c1ccccc1NC(=O)c1c2c(nc3ccccc13)C(=O)N(C1CCCCC1)C2,0.78,/
COc1ccc(Cl)cc1NC(=O)CSc1nc2ncccc2[nH]1,1.8,-1.1
SMILES,TAR Tat displ,CDC25B CDK2 inh
CCOc1ccccc1-n1c(-c2cccnc2)n[nH]c1=S,/,-1.1
O=C(CSc1nc(=O)n(CCN2CCOCC2)c2c1CCC2)Nc1cccc(Cl)c1,1,/
Cn1c(C2=C(O)CN(c3ccc(OCc4ccccc4)cc3)C2=N)nc2ccccc21,0.53,0.68
Cc1cc2c(cc3c(SCC(=O)Nc4ccc(Cl)cc4F)nnc(C)n32)o1,-0.76,/
COc1cc(C2OC(c3cncc(Br)c3)=NN2C(C)=O)ccc1OC(C)=O (configuration not stated),0.15,/
Cn1c(CN2CCCC2)nc2cc(NC(=O)c3ccco3)ccc21,-0.27,3.4
CCN1CCN(c2nc(Nc3ccc(OC)cc3)c3cnn(C)c3n2)CC1,2.9,/
CCOC(=O)Cc1nn(Cc2nc(-c3ccc([N+](=O)[O-])cc3)cs2)c(=O)c2ccccc12,/,2.7
Cc1csc2ncc(C(=O)Nc3ccc(F)c(F)c3)c(=O)n12,/,-0.37
CC1CCC(NC(=O)C2c3cccn3CC(=O)N2Cc2ccco2)CC1 (configuration not stated),0.07,-1.6
O=S1(=O)CCC(S(=O)(=O)NCCCN2CCOCC2)C1 (configuration not stated),1.3,1.5
Cc1ccc(CS(=O)(=O)c2cccs2)cc1,/,-0.73
C/S(=N\S(=O)(=O)c1cccc2nsnc12)c1ncccc1C(F)(F)F (configuration not stated),/,-0.59
COCCN1CCN(C2CCN(S(=O)(=O)c3ccc(Cl)cc3)CC2)C(=O)C1=O,2.2,/
O=C(Nc1nccs1)c1cc(-c2cccs2)on1,2.5,-1
CC1CCN(CC(O)CN2c3ccccc3Sc3ccccc32)CC1 (configuration not stated),/,-0.86
COc1cc(C2CC(=O)N(C)c3ccccc3S2)cc(OC)c1OC (configuration not stated),/,0.42
CSc1nc(C)cc(Nc2ccc(Cl)cc2C)n1,0.8,0.03
Clc1ccc(Oc2nc(-c3ccncc3)nc3ccccc23)cc1,1.5,-1.4
CC(C)NC(=O)c1cc2c(n(-c3ccccc3)c1=O)CC(C)(C)CC2=O,1.3,/
CSc1ccccc1NC(=O)c1noc(C(C)C)c1[N+](=O)[O-],1.6,-1.8
Cc1nn(C)c(C)c1CNC(=O)Nc1ccc2c(c1)OCO2,1.1,/
Nc1nnc(-c2ccc(Cl)cc2)s1,0.23,-1
COc1ccc(NS(=O)(=O)c2cc(-c3onc(C)c3C)ccc2OC)cc1OC,1.5,/
O=C(CSc1n[nH]c(=O)n1-c1cccnc1)c1ccc2c(c1)OCCO2,/,-1.5
SMILES,TAR Tat displ,CDC25B CDK2 inh
CCC(C(=O)N1CCN(C(=O)c2ccco2)CC1)n1sc2ccccc2c1=O (configuration not stated),1.3,-1.8
CC(=O)N1c2ccc(S(=O)(=O)N3CCC(C(=O)N4CCc5ccccc5C4)CC3)cc2CC1C (configuration not stated),1.1,/
CCCc1cc(=O)n2nc(N3CCC(C(=O)NCC)CC3)sc2n1,1.5,-0.91
COc1ccc(Oc2cccc(Cl)c2CNC(=O)NS(=O)(=O)c2ccc(C)cc2)cc1,/,1.3
CCSC1=N/C(=C\c2ccc(C(=O)O)cc2)C(=O)S1,1.1,-0.77
CCOc1ccc(-c2n[nH]c(C)c2-c2ccccc2)c(O)c1,2.2,0.38
CCOC(=O)c1cnc2c(c(C3CC3)nn2C)c1N1CCOCC1,/,-2.5
Cc1nnc2sc(SCC(N)=O)nn2c1=O,2.2,-1.6
CCc1nc(Cl)c(C#N)c2c1CCCC2,/,-0.14
CC(C)Oc1ccccc1C1CC(=O)Nc2nc(SCc3ccccc3F)[nH]c(=O)c21 (configuration not stated),1.6,-0.99
CCOCCCNC(=O)C1CCN(C(=O)c2cc3sccc3n2CC)CC1,-1.9,-3
CC(=O)OCC1=C(C(=O)O)N2C(=O)C(NC(=O)Cn3nc(C)cc3C)C2SC1 (configuration not stated),0.06,-2.1
Cc1ccc(C)c(N2CCN(c3ncnc4onc(C)c34)CC2)c1,0.23,/
O=C(Oc1ccc(Cl)c2cccnc12)c1cccnc1,1.8,-1.9
CN(NC1OC(=O)c2ccccc21)c1ncc(C(F)(F)F)cc1Cl (configuration not stated),/,0.08
Cc1nc2nc(Cc3cccc(F)c3)nn2c(N2CCN(Cc3ccc4c(c3)OCO4)CC2)c1C,0.54,/
CC1=Nc2ccccc2-c2nnc(SCc3ccccc3)nc2O1,-0.33,-1.6
c1ccc(CSc2ncnc3ccccc23)cc1,/,-0.53
Cc1ccc(S(=O)(=O)NC(=O)NCCCN2CCN(Cc3c(F)cccc3Cl)CC2)cc1,/,-1.9
CCn1c[n+](CC(O)COc2ccc(OC)cc2)c2cc(C)c(C)cc21 (configuration not stated),-0.84,-0.06
COCc1c(Br)c(C)nc2sc3c(=O)n(-c4ccc(C(=O)OC)cc4)nnc3c12,1.4,-0.02
COCc1cc(C)nc2sc3c(=O)n(-c4c(C)cccc4C)nnc3c12,0.15,-2.7
Cc1ccccc1CSc1nc(-c2ccccc2)c(C#N)c(=O)[nH]1,-0.23,-1.7
c1ccc(-c2csc(N/N=C3\CCCc4occc43)n2)cc1,/,-0.17
c1ccc2oc(NC3=NCN(CCN4CCOCC4)CN3)nc2c1,-0.79,0.32
SMILES,TAR Tat displ,CDC25B CDK2 inh
CC(C)c1nc(SCC(=O)Nc2ccc3c(c2)OCCO3)c2c(=O)n(C)c(=O)n(C)c2n1,0.94,/
CSc1nc2c(cc1C#N)CCC2,/,-1.6
Cc1nc(-c2ccc(C)c(S(=O)(=O)Nc3ccc(F)cc3F)c2)cs1,0.63,/
CCc1cc2c(cc3n2CC(C)(C(=O)NC2CCCCC2)N(CC2CCCO2)C3=O)s1 (configuration not stated),1.9,-2.1
O=[N+]([O-])c1ccc(CSc2ncc3ccccn23)cc1,/,0.19
O=C(O)c1ccc(Nc2nc(-c3ccc(O)cc3O)cs2)cc1O,/,-0.5
Cc1ccc(NC(c2ccccn2)c2ccc3cccnc3c2O)c(C)c1 (configuration not stated),2.4,-1.7
Cc1ccc(S(=O)(=O)N2CCN(c3nc4ccccc4n4cccc34)CC2)cc1,0.32,-2.3
Cn1c(=O)n(C)c2cc(S(=O)(=O)NCCCC(=O)O)ccc21,1.2,-0.94
CCCNC(=O)N1CCN(S(=O)(=O)c2ccc3c(ccn3C)c2)CC1,1.4,/
COc1ccc(-c2nc(-c3cc4ccc(C)cc4[nH]c3=O)no2)cc1,-1.1,2.1
Cc1nc(-c2ccc(C)c(S(=O)(=O)Nc3ccc4c(c3)OCCO4)c2)cs1,0.96,/
CCCN1CCN(c2ncc3c(n2)CCN(Cc2ccc(F)cc2F)C3)CC1,1.8,/
COc1ccc2cc(C(=O)NCC(=O)O)sc(=O)c2c1OC,-1,-1.8
CCOC(=O)c1c(NC(=O)CC)sc(C(=O)NC2CCCC2)c1C,/,-3.5
CC(=O)N1CCc2cc(S(=O)(=O)C(C)CC(=O)NCc3cccs3)ccc21 (configuration not stated),-0.47,/
CCS(=O)(=O)Nc1cc2c(C(=O)O)c(C)n(S(=O)(=O)CC)c2cc1OC,-0.23,-2.3
O=C(Nc1ccc(F)cc1)Nc1nnc(Cc2ccc(Cl)c(Cl)c2)s1,/,-4.2
CCOc1ccc(NS(=O)(=O)c2ccc3c(c2)n(C)c(=O)n3C)cc1,3,-1.6
Cn1c(-n2cccc2)c(-c2c(-c3ccc4ccccc4c3)[nH]c3c2c(=O)[nH]c(=O)n3C)c(=O)[nH]c1=O,-3.1,0.34
Cc1cc(Br)cc(C2NC(=O)c3c(sc4c3CCN(C)C4)N2)c1O (configuration not stated),0.67,0.13
COc1ccc(N2C(=O)N(Cc3cc(=O)n4ccccc4n3)c3ccccc3S2(=O)=O)cc1,1.6,/
COC(=O)c1sc2[nH]c(=S)n(CCN3CCCC3)c(=O)c2c1C,/,0.02
CC1CN(C(=O)N2CCC(C(=O)Nc3ccc(F)cc3F)CC2)c2cc(Cl)ccc2O1 (configuration not stated),-0.91,/
CCN(CCCNS(=O)(=O)c1ccc(-c2cc(C(F)(F)F)on2)s1)c1ccccc1,1.7,/
SMILES,TAR Tat displ,CDC25B CDK2 inh
CN1CCc2nc3sc(C(=O)Nc4cccc(Cl)c4)c(N)c3cc2C1,-1.6,-2
Cc1cc(-c2onc(C)c2/C(N)=N/OC(=O)c2ccccc2)no1,/,-1.8
COc1ccc(N2C(=O)c3cccnc3C2Nc2ccccc2)cc1 (configuration not stated),1.1,/
O=S(=O)(NCCC1=CCCCC1)c1ccc(-c2cc(C(F)(F)F)on2)s1,0.24,/
CC1CC(=O)Nc2cc(S(=O)(=O)Nc3ccccc3)ccc2S1 (configuration not stated),0.94,/
O=C(NCCCN1CCOCC1)C1c2ccccc2C(=O)N(C2CCCC2)C1c1cccs1 (configuration not stated),-0.9,/
Cc1onc(C(=O)N(C)C2CCCCC2)c1[N+](=O)[O-],1.1,0.63
Cc1nnc(SCC(=O)N2CCc3ccccc3C2)c2nn(-c3ccccc3)c(C)c12,-3,/
O=C(NCc1ccc2c(c1)OCO2)C1C2C=CC3(CN(Cc4ccccc4Cl)C(=O)C13)O2 (configuration not stated),/,-0.61
Cc1cccc(N2CCN(C(=O)CCC3Nc4c5ccccc5nc(=S)n4C3=O)CC2C)c1 (configuration not stated),/,-1.8
CC1CCN(CCCCCOc2ccccc2Br)CC1,0.3,1.1
Cc1cccc(N2C(=O)N(c3cccc(Cl)c3)C3CS(=O)(=O)CC32)c1C (configuration not stated),1.5,0.43
CCOC(=O)N1CCC2(CC1)OC(=O)C(C)=C2C(=O)NC1CC1,-0.25,/
O=C1c2ccncc2C(=O)N1c1ccc(F)cc1Cl,0.16,/
CCOC(=O)C12CCC(C(=O)OCC)(CC13SCCS3)C1(C2)SCCS1,/,-0.9
COC(=O)c1ccc(NS(=O)(=O)c2c(C)nc3scc(C)n3c2=O)cc1,2.6,-1.9
CC1CCN(S(=O)(=O)c2ccc3c(c2)oc(=O)n3C)CC1,0.42,1.4
CN1C(=O)C2(c3ccccc31)C(C(=O)Nc1ccc(F)cc1F)CC1CCCN12 (configuration not stated),-0.28,/
Cc1cccc(N2CCN(S(=O)(=O)c3cc(-c4noc(C5CC5)n4)cs3)CC2)c1C,0.68,/
